Screening data: PubChem BioAssay, several laboratories
RanGTP-Imp inh = inhibitors of RanGTP-importin-beta interaction, primary screen, biochemical, FRET, CFP-Ran, YFP-importin-beta, homogeneous; cell-free CFP-Ran/YFP-importin-beta FRET ratio; inhibition, % (no concentration beside the values); 1.1% of 300,000 active; AID 2216;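 active means most replicates above 15%; inconclusive means exactly half above 15%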;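 further: 0% = DMSO wells and 100% = Ran loaded with GDP instead of GTP; wells of about 40 µL received 100 nL stock; the first replicate is given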
A1 inh = inhibitors of the anti-apoptotic protein A1, read as caspase activation. MEF A1-2A-BIM cells, Caspase-Glo 3/7 luminescence, 3 h; percent of clofoctol response, vehicle zero. caspase activation, % (concentration not given with the values). 0.066% of 330,000 active. AID 2462;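 active means over half of replicate activation scores above 10%, or exactly half above 10 with the replicate mean above 10; inconclusive means replicate mean below 10 yet half the replicates above 10; inactive means over half of replicates below 10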;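 further: wells of about 30 µL received 50 nL stock; many hits fall short of the cut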
MLL AF4-AF9 inh = MLL-AF4/AF9 protein interaction inhibition. P42568. AlphaScreen, biotin-AF4 peptide binding to FLAG-AF9. inhibition, % at 10 µM. 0.47% of 350,000 active. AID 651704;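 active means every replicate reaching a set inhibition limit, whatever the replicate mean, cut at about 25% in these data; inconclusive means mean inhibition reaches that limit but some replicates miss it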;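 further: 0% = plate neutral control median and 100% = total signal loss; the record names both 10 and 1 µM as test concentration; the first replicate is given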
Target sequence (P42568 whole entry, looked up): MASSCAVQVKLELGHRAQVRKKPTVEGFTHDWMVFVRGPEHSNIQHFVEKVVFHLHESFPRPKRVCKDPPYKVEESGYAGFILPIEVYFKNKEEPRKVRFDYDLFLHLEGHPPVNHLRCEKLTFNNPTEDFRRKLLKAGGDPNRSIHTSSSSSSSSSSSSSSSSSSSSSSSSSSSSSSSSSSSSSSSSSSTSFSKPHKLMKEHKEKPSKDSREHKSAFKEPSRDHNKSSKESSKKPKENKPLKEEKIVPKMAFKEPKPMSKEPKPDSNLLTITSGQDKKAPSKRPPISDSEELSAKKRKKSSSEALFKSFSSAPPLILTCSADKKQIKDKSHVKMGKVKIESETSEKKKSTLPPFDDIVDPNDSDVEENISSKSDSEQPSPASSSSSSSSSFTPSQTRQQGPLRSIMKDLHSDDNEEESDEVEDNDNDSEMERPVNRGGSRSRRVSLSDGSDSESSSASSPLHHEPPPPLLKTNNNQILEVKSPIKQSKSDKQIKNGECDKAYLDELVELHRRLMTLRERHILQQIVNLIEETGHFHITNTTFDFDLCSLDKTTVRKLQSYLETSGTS
Beta apoptosis = beta cell apoptosis inhibition | INS-1E cytokine-induced death, ATP luminescence, 48 h; percent of positive-control rescue, neutral wells zero | protection from apoptosis, % (test concentration not listed) | 0.8% of 300,000 active;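 active means all replicates at 75% or more, or half of them and the mean; inconclusive means half reach 75% but not the mean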;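 further: 0% = cytokine-treated negative control wells and 100% = positive control rescue; higher means more ATP so stronger rescue from cytokine killing; wells of about 40 µL received 100 nL stock; the first replicate is given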
Vif A3G = inhibitors of Vif binding to APOBEC3G peptide, primary screen, biochemical, TR-FRET, GST-Vif 1-94, biotin-A3G peptide, dose response retest (AID 1117319). TR-FRET GST-Vif / biotin-A3G peptide binding; higher % means a stronger effect; test concentration not given here; strong numbers were not always called active. inhibition, %, or IC50 in µM where a hit was titrated. 0.57% of 260,000 active;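 active means above the screen mean plus three standard deviations and confirmed in dose response; inconclusive means results disagree or hit not tested in dose response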;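 further: Vif residues 1-94 fused to GST binding biotinylated APOBEC3G peptide 110-148; 0% = full assay without inhibitor and 100% = GST in place of GST-Vif; retest series ran down from 100 µM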
T cruzi repl = T. cruzi replication inhibition; T. cruzi beta-gal in NIH3T3, luminescence, 90 h; inhibition, % (no concentration beside the values); 1.4% of 300,000 active; AID 1885;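 active means mean inhibition across valid replicates above about 55%, limit read from the data; inconclusive means mean below that limit but half or more replicates reach it; inactive means mean below it, under half of replicates reach it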;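 further: signal also drops with host cell toxicity which is not excluded here; 0% = plate median of DMSO wells and 100% = zero luminescence signal; higher percent means less beta-gal luminescence so fewer parasites; stock transfer was 50 nL into about 50 µL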
Calb FLC = affects C. albicans growth with fluconazole; 0.57% of 300,000 active; growth inhibition, % (test concentration not listed); C. albicans CaCi-2 (fluconazole-resistant clinical isolate) + fluconazole, Alamar Blue growth, 48 h;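 active means most replicates above 75%; inconclusive means exactly half above 75%; inactive means most below 75%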;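 further: all wells also contain fluconazole at 8 µg/ml as a sub-toxic cotreatment; 0% = median of DMSO wells and 100% = median of geldanamycin control wells; wells of about 8 µL received 7.5 nL stock; the first replicate is given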
Ecoli rRNA inh = selective bacterial rRNA inhibition in E. coli; 1.6% of 350,000 active; AID 720706; GFP signal change (wild-type ribosome), % (no concentration beside the values); E. coli WT GFP vs humanized-ribosome RFP mutants, fluorescence, 24 h; hits give low values; DMSO median 0, no signal -100;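 active means significant combined selectivity score with lowered wild-type GFP, culture density cut under 30%, mutant RFP and density less affected; inactive means any of these conditions unmet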; further: one replicate is shown; some compounds called inactive have numbers as strong as hits
Ecoli rRNA inh OD600 = further read-out of Ecoli rRNA inh, marked with its call; OD600 change, %; measured here: OD600 growth;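 optical density of the mix in the first replicate; 0 = DMSO median and -100 = no signal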
Ecoli rRNA inh RFP = also measured in Ecoli rRNA inh; calls as there; RFP signal change, %; measured here: RFP humanized mutant strains;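 first replicate; 0 = DMSO median and -100 = no signal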
Starred values were filed as active, the others as inactive; ? = inconclusive; · = no result given. Some of the compounds tested (hit frequency here may not be typical).

mol	RanGTP-Imp inh	A1 inh	MLL AF4-AF9 inh	Beta apoptosis	Vif A3G	T cruzi repl	Calb FLC	Ecoli rRNA inh	Ecoli rRNA inh OD600	Ecoli rRNA inh RFP
CSCCOC(=O)C1=C(C)Nc2ccc(C)cc2S1	-2.0	0.8	·	-16	2%	1	-7	·	·	·
CC(=O)c1sc(NCCOc2ccc(C)cc2)nc1C	0.5	-0.2	-5.4	-9	-34%	9	13	10	9	0.0
COC(=O)CSC1=C(C#N)C(c2ccc3c(c2)OCO3)C2=C(CCCC2=O)N1 (stereo not given)	-2.8	-0.2	·	·	23%	8	11	·	·	·
CC(=O)c1ccccc1NC(=O)CN1C(=O)CS/C1=C\c1nc(-c2ccc(C)cc2)cs1	1.2	-0.1	-0.4	-8	-10%	2	-17	10	-4	9.6
O=C(NCc1cccc(CNC(=O)C(=O)NCc2ccco2)c1)C(=O)NCc1ccco1	-0.4	0.5	-3.5	-4	17%	4	9	·	·	·
O=C(CSc1nnc2ccccn12)NNC(=O)c1ccc(Br)cc1	-0.1	0.5	0.0	5	-1%	-2	1	17	6	-0.1
CCOc1ccc(C2C(C(=O)c3ccco3)=C(O)C(=O)N2CCCn2ccnc2)cc1 (stereo not given)	-1.1	·	·	·	-3%	-6	-5	·	·	·
CCOc1ccccc1NC(=O)CSc1nc(=O)n(Cc2ccncc2)c2c1CCC2	-3.1	0.1	0.9	-7	1%	12	8	21	12	0.7
Cc1c(N=c2scc(-c3ccccc3)n2C)c(=O)n(-c2ccccc2)n1C	2.9	-0.6	-13	-2	3%	6	-1	-3	-6	-2.4
COc1ccc(OC)c(S(=O)(=O)Nc2ccc(C(N)=O)cc2)c1	-7.2	0.7	4.9	-1	-6%	1	-12	10	-10	11
O=C(COc1ccccc1Br)N1CCNC1=O	·	1.1	1.2	-1	-6%	·	·	7	13	-3.4
O=C(CSc1ncnc2c(-c3ccc(Cl)cc3)nsc12)c1ccccc1	-1.0	-4.0	-53	14	-24%	-5	5	-11	8	3.5
N/C(=N\OC(=O)N1c2ccccc2Sc2ccccc21)c1ccccc1	-3.1	-0.5	4.3	10	·	82*	94*	-6	-12	-3.0
CC1(C)Cc2c(c(N3CCCC3)nc3sc4c(N5CCNCC5)ncnc4c23)CO1	4.1	1.0	·	·	·	14	26	·	·	·
COc1cc2cnc(-c3ccsc3)c(-c3ccc(F)cc3)c2cc1OC	·	1.0	5.6	-1	·	·	·	-10	-1	8.4
COc1ccc(-c2cccc(NC(=O)COc3ccc(Cl)cc3)c2)nn1	1.5	-0.5	·	-7	-17%	-2	1	·	·	·
CCc1ccccc1NC(=O)Nc1cccn(Cc2ccccc2F)c1=O	0.9	-0.1	-0.5	2	3%	14	0	-4	1	-2.3
CCCCC(=O)NC(=S)NNC(=O)CC#N	6.6	0.2	·	-1	-9%	-14	-10	·	·	·
Cc1cc(=O)oc2cc(OCC(=O)N3CC(C)OC(C)C3)ccc12 (stereo not given)	4.8	-0.5	·	-8	-2%	2	7	·	·	·
c1ccc(COc2cccc(CNn3cnnc3)c2)cc1	-1.4	0.4	-0.6	0	0%	8	-24	10	2	3.6
CC1CCCN(C(=O)c2ccc(-c3ccccc3Cl)o2)C1 (stereo not given)	3.4	-0.6	-9.5	2	-8%	0	-2	-49	-76	-12
O=[N+]([O-])c1ccc2c(c1)oc1ccccc12	0.1	0.6	·	2	8%	-13	-14	·	·	·
CCS(=O)(=O)N1CCC(C(=O)Oc2ccccc2Cl)CC1	4.9	-0.1	0.8	-8	·	-7	-8	-6	0	3.9
CCCCC(C(=O)O)C(C)CC(=O)NNC(=O)c1ccco1 (stereo not given)	2.8	0.3	-1.2	-1	-3%	-8	6	15	24	1.4
CCn1c(=N)n(CC(=O)OC)c2ccccc21	-0.9	1.8	·	0	1%	-17	-4	·	·	·
O=S(=O)(c1ccc2c(c1)nc1n2CCC1)N1CCOCC1	-4.3	0.5	·	-7	11%	-10	?	·	·	·
Cc1ccc(NC(=O)c2ccccc2NC(=O)CCC(=O)O)cc1	-0.8	-0.5	·	-1	-1%	-14	2	·	·	·
Cc1cc(NC(=O)CSc2ncc(C(F)(F)F)cc2Cl)no1	·	?	-0.6	-3	-10%	·	·	4	10	0.5
COc1ccc(N(CC(=O)NC2CCCCC2)C(=O)CCCC(=O)Nc2ccccn2)c(OC)c1	0.3	0.2	·	-1	22%	-3	2	·	·	·
Cc1ccccc1NC(=S)N1CCC(C(=O)c2ccc(F)cc2)CC1	-2.4	1.2	12	-6	11%	-7	-29	2	-23	-2.8

An excerpt from above in order of the Ecoli rRNA inh value, low to high.
| canonical_smiles | Ecoli rRNA inh |
| --- | --- |
| CCS(=O)(=O)N1CCC(C(=O)Oc2ccccc2Cl)CC1 | -6 |
| Cc1cc(NC(=O)CSc2ncc(C(F)(F)F)cc2Cl)no1 | 4 |
| CC(=O)c1ccccc1NC(=O)CN1C(=O)CS/C1=C\c1nc(-c2ccc(C)cc2)cs1 | 10 |

Later entries.
mol	RanGTP-Imp inh	A1 inh	MLL AF4-AF9 inh	Beta apoptosis	Vif A3G	T cruzi repl	Calb FLC	Ecoli rRNA inh	Ecoli rRNA inh OD600	Ecoli rRNA inh RFP
CC(C)Oc1cccc(C(=O)NC2=NCCS2)c1	1.1	-1.1	-1.9	-3	28%	10	-5	8	0	4.5
CCc1cc(CNC(=O)CC2C(=O)NCCN2Cc2cccc(OC)c2)on1 (stereo not given)	1.6	-0.2	0.4	0	-3%	-7	-25	16	9	2.8
CC(O)(CS(=O)(=O)Cc1ccccc1)c1ccccc1Cl (stereo not given)	2.1	0.5	-1.6	-6	-2%	-5	-1	4	4	2.5
N=C(N=C(N)N)N1CCc2ccccc21	0.9	1.5	-0.3	-9	-3%	-25	-11	25	18	3.5
O=c1[nH]c2cc3c(cc2cc1CN(CCO)S(=O)(=O)c1ccccc1Cl)OCCO3	-2.2	0.5	·	-4	-11%	11	-2	·	·	·
Cc1cc(NC(=O)CN2C(=O)CC(c3ccco3)Sc3ccccc32)no1 (stereo not given)	3.3	0.0	·	4	17%	-3	7	·	·	·
CC1CCN(S(=O)(=O)c2ccc(S(=O)(=O)NCC(=O)C(C)(C)C)cc2)CC1	1.8	0.9	·	-3	31%	-5	8	·	·	·
COc1cc(C(=O)Nc2ccccc2NC(=O)c2cc(OC)c(OC)c(OC)c2)cc(OC)c1OC	0.5	-0.2	-1.6	-3	21%	25	-2	3	4	-0.4
CCCn1c(=O)[nH]c(=O)c2c1nc(-c1cccs1)n2CCOC	-3.5	-0.1	0.9	-4	-50%	15	14	9	12	-0.4
Cc1ccc(C(=O)Nc2ccc(NC(=O)c3cccs3)cc2)c(C)c1	2.4	0.4	0.8	7	·	-9	4	-1	4	-1.5
C(=N\C(/N=C/c1ccco1)c1ccco1)/c1ccco1	-3.9	0.0	·	·	?	-8	16	·	·	·
CCc1nnc(NC(=O)C2CC(=O)N(CCc3ccccc3)C2)s1 (stereo not given)	0.7	1.9	·	-3	-5%	-7	13	·	·	·
COc1cc(C=C(c2nc3ccccc3s2)c2nc3ccccc3s2)cc(OC)c1O	36*	0.0	·	-2	·	-4	-4	·	·	·
CCC(CC)=C(C#N)C(=O)NC1CCCCC1	?	0.6	·	6	-13%	8	-5	·	·	·
CCCCC1CCC(C(=O)Nc2ccccc2)CC1 (stereo not given)	0.4	-0.5	·	-2	0%	-14	-19	·	·	·
Cc1ccc(S(=O)(=O)N2CCOCC2)cc1C(=O)NC(=S)N1CC(C)OC(C)C1 (stereo not given)	2.4	1.1	-3.3	4	7%	2	-7	7	-3	12
Cc1nc2c3ccccc3n(Cc3ccccc3F)c2s1	-0.7	0.2	-1.0	-16	·	4	57	-52	-73	-18
COc1cccc(CNC(=O)C2CCCN2S(=O)(=O)c2ccc3c(c2)C(C)(C)C(=O)N3C)c1 (stereo not given)	-1.4	0.4	6.9	1	·	-3	5	1	4	-0.2
CCc1ccc(N2C(=O)c3sc4nnc(-c5ccccc5)c(=O)n4c3C2=O)cc1	-2.1	-0.4	·	10	?	7	-4	·	·	·
O=C(O)C1CC=CCC1C(=O)NNc1ccccc1 (stereo not given)	12	1.0	0.2	·	-5%	-7	-7	6	8	-5.9
CC(=O)O[C@H]1[C@H](C)OC=C[C@@H]1OC(C)=O	1.9	-0.7	-3.9	·	·	4	-1	4	-3	-6.2
CN1c2ccccc2-c2nc3ccccc3n2C1c1ccco1 (stereo not given)	-2.1	0.3	·	-3	-1%	-34	10	·	·	·
Cc1ccc(NC(=O)CN2C(=O)c3ccccc3C2=O)nc1	4.1	0.7	-0.7	-4	·	-5	15	11	10	-0.3
O=C(O)/C=C1\CCCc2ccccc2C1O (stereo not given)	·	1.0	0.1	0	·	·	·	2	13	-1.8
Cn1c(SCC(=O)NCC2COc3ccccc3O2)nnc1C(F)(F)F (stereo not given)	·	-0.7	-0.4	-6	2%	·	·	7	11	2.4
CN(C)CCNc1ncnc2sc(-c3ccccc3)cc12	-1.7	-0.5	8.1	-4	-7%	-14	-4	-26	-33	-8.1
